Ecoli growth: blocks Escherichia coli growth | OD600, 23 h; stronger effect = lower value | OD600 absorbance (concentration not given with the values) | actives 0.21% (n = 330,000) | AID 1053175;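 active means OD600 absorbance below the run mean of sample wells minus 3.6 SD, in any replicate, cut at about 0.56 in these data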;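 further: stock transfer was 300 nL into about 60 µL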
UCH37 DUB inh: blocks the human deubiquitinase UCH37 | purified proteasome/UCH37, Ub-AMC cleavage fluorescence | AID 588478 | actives 0.33% (n = 330,000) | inhibition, % (no concentration beside the values);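 active means mean of two replicates above 20%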;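 further: 0% = compound-free wells with enzyme and 100% = wells lacking proteasome; stock transfer was 100 nL into about 20 µL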
Target sequence (Q9Y5K5 whole entry, looked up): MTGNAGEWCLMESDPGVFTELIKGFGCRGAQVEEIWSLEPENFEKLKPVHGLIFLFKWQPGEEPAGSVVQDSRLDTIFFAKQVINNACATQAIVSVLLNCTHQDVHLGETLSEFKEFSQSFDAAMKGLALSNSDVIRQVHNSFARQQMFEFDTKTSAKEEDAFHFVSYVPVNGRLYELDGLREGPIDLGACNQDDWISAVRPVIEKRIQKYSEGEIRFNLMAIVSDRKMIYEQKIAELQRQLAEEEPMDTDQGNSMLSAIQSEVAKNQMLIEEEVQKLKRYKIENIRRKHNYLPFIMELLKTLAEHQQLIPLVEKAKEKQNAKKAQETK
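Reagent: Ub-AMC substrate; assay system: Proteasome-associated human UCH37 deubiquitinase; controls: no-proteasome and no-compound wells; read-out: % inhibition of Ub-AMC cleavage fluorescence; timing: 30 min preincubation with enzyme, 25 min cleavage at room temperature; signal: AMC fluorescence from Ub-AMC cleavage, excitation 355 nm, emission 460 nm; buffer or medium: Tris-HCl pH 7.4 plus ovalbumin, ATP-MgCl2, DTT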
* hit, by the source's call. An excerpt; count on the stated rates, not on these rows.

> C/C(C=NN1CCN(c2ccc(C)cc2)CC1)=C\c1ccccc1
  Ecoli growth: 0.72; UCH37 DUB inh: 2.1
> CC(=NNC(=O)c1cccs1)c1ccco1
  Ecoli growth: 0.67; UCH37 DUB inh: 6.5
> CCN(CC)C(=O)C(=O)NN=Cc1ccc(Br)cc1
  Ecoli growth: 0.67; UCH37 DUB inh: 1.5
> CCCCOc1ccc(C=NNC(=O)C2CCCNC2=O)cc1 (stereo unspecified)
  Ecoli growth: 0.66; UCH37 DUB inh: 3.7
> CCOc1cccc(-c2c(C(=O)NN=C(C)c3ccccn3)nnn2-c2nonc2N)c1
  Ecoli growth: 0.72; UCH37 DUB inh: -0.5
> CCNC(=S)NN=Cc1ccc(OCCOc2ccccc2C)cc1
  Ecoli growth: 0.69; UCH37 DUB inh: 5.3
> S=c1[nH]nc(COc2ccccc2)n1N=Cc1cccc(Br)c1
  Ecoli growth: 0.69; UCH37 DUB inh: 2.7
> Cc1nc(C(F)(F)F)c(C(=O)NN=C(N)c2ccccn2)s1
  Ecoli growth: 0.6; UCH37 DUB inh: 3.7
> CN(C)C=Nc1c(C#N)cnn1-c1ccc(C(F)(F)F)cn1
  Ecoli growth: 0.72; UCH37 DUB inh: 4.1
> Cc1ccsc1C=NNC(=O)C(O)c1ccccc1 (stereo unspecified)
  Ecoli growth: 0.68; UCH37 DUB inh: 4.5
> CCn1cc(C=NNC(=O)c2ccc(Cl)cc2)cn1
  Ecoli growth: 0.72; UCH37 DUB inh: -1.8
> CC(=NNC(=O)Cc1c(C)[nH][nH]c1=O)c1ccc2ccccc2c1
  Ecoli growth: 0.65; UCH37 DUB inh: 4.8
> Cc1ccc(C(=O)NCC(=O)NN=Cc2cccs2)cc1C
  Ecoli growth: 0.66; UCH37 DUB inh: -0.4
> C=CCOc1ccccc1C=c1sc2nc(=O)c(C)nn2c1=O
  Ecoli growth: 0.75; UCH37 DUB inh: 2.5
> COCCNC(=S)NN=C(C)c1ccc(-n2ccnc2)cc1
  Ecoli growth: 0.68; UCH37 DUB inh: 4.7

Next section (2 carried over from the part before).
> C=CCOc1ccccc1C=c1sc2nc(=O)c(C)nn2c1=O
  Ecoli growth: 0.75; UCH37 DUB inh: 2.5
> COCCNC(=S)NN=C(C)c1ccc(-n2ccnc2)cc1
  Ecoli growth: 0.68; UCH37 DUB inh: 4.7
> O=C(CSc1nc2ccccc2o1)NN=Cc1ccccc1
  Ecoli growth: 0.68; UCH37 DUB inh: 2.4
> COc1cc(C=NNC2=NC(C)(C)Cc3ccccc32)cc(OC)c1OC
  Ecoli growth: 0.64; UCH37 DUB inh: 9.3
> Cc1nn(C)cc1C=NNC(=O)Cn1cncn1
  Ecoli growth: 0.66; UCH37 DUB inh: 5.3
> CCCCC(CC)Cn1c2nc3ccccc3nc2c2c(=N)oc(C)nc21 (stereo unspecified)
  Ecoli growth: 0.61; UCH37 DUB inh: -37
> COc1cc(C=NNC(=O)CC#N)ccc1Oc1nc(Cl)ncc1F
  Ecoli growth: 0.62; UCH37 DUB inh: 5.7
> CC(C)=C(NC(=O)c1ccccc1)C(=O)NN=Cc1ccc(O)cc1
  Ecoli growth: 0.67; UCH37 DUB inh: 2.7
> Cc1cc(-c2ccc(C=Nn3cnnc3)o2)c(C)c([N+](=O)[O-])c1
  Ecoli growth: 0.71; UCH37 DUB inh: 6.9
> CC(=NO)C(=O)NCCCn1ccnc1
  Ecoli growth: 0.64; UCH37 DUB inh: 0.7
> CC1(C)C2CC=C(C=NNC(=O)C(N)=O)C1C2 (stereo unspecified)
  Ecoli growth: 0.67; UCH37 DUB inh: 3.8
> CCCC12CN3CCN(CC(C3)C1=NNC(=O)c1ccc(F)cc1)C2
  Ecoli growth: 0.67; UCH37 DUB inh: 1.2
> CN(N=CCc1nnnn1-c1ccc(Cl)cc1)c1ccccc1
  Ecoli growth: 0.61; UCH37 DUB inh: 1.7
> C/C(C=NNC(=O)c1ccccn1)=C\c1ccco1
  Ecoli growth: 0.66; UCH37 DUB inh: 7.9
> O=S1(=O)CCC(=NNc2ccc(F)cc2)c2ccsc21
  Ecoli growth: 0.62; UCH37 DUB inh: 6.1
> Nc1nonc1-n1nnc(C(=O)NN=Cc2ccoc2)c1CSc1ccccc1
  Ecoli growth: 0.71; UCH37 DUB inh: 1.6
> CC(=NNC(=O)COc1ccc(C(C)(C)C)cc1)c1ccccc1
  Ecoli growth: 0.66; UCH37 DUB inh: 2.3

> CC(=NNC(=O)c1cccs1)c1ccc(NC(=O)COc2ccc(Cl)cc2Cl)cc1
  Ecoli growth: 0.75; UCH37 DUB inh: -20
> CC1(C)CN=c2sc(=Cc3ccc(Cl)cc3)c(=O)n2C1
  Ecoli growth: 0.73; UCH37 DUB inh: -167
> CC(=NNC(=O)C1CCCN(S(=O)(=O)c2ccccc2)C1)c1ccccn1 (stereo unspecified)
  Ecoli growth: 0.67; UCH37 DUB inh: 2.9
> Cc1ccc(S(=O)(=O)/N=S(\C)c2ccccc2)cc1 (stereo unspecified)
  Ecoli growth: 0.7; UCH37 DUB inh: 3.0
> CSc1n[nH]c(N=Cc2oc(O)c3ccccc23)n1
  Ecoli growth: 0.69; UCH37 DUB inh: 0.9
> Cc1ccc(Cn2c(SCC(=O)NN=Cc3ccccc3OCC(=O)O)nc3ccccc32)cc1
  Ecoli growth: 0.71; UCH37 DUB inh: 2.8
> Cc1nn(-c2ccccc2)c(Cl)c1C=NNc1nc2ccccc2[nH]1
  Ecoli growth: 0.64; UCH37 DUB inh: 4.7
> COc1ccc(C=NN2CCOCC2)cc1Cn1cc([N+](=O)[O-])cn1
  Ecoli growth: 0.69; UCH37 DUB inh: 1.7
> CN(C)c1ccc(C=NNC(=O)c2cc(=O)[nH]c3ccccc23)cc1
  Ecoli growth: 0.68; UCH37 DUB inh: 13
> Nc1c(Cl)c(Cl)nc(C(=O)NN=Cc2cccnc2)c1Cl
  Ecoli growth: 0.64; UCH37 DUB inh: 1.6
> COc1ccc(C=Nn2cc(-c3ccc(OC)cc3)nc2N)cc1
  Ecoli growth: 0.65; UCH37 DUB inh: 2.8
> O=c1c2c(-c3ccccc3)csc2ncn1N=Cc1ccc(O)c([N+](=O)[O-])c1
  Ecoli growth: 0.71; UCH37 DUB inh: 10
> COc1ccc(C=NNC(=O)CCn2cnc(-c3ccccc3)c2-c2ccccc2)cc1OC
  Ecoli growth: 0.7; UCH37 DUB inh: 3.5
> Cc1ccc(S(=O)(=O)NN=Cc2cn(CC(N)=O)c3ccccc23)cc1
  Ecoli growth: 0.69; UCH37 DUB inh: 2.2
> CCCCCCn1c(C)nc2c(c1=O)c1nc3ccccc3nc1n2N=Cc1ccco1
  Ecoli growth: 0.69; UCH37 DUB inh: -27

> CCc1c(C(=O)NN=Cc2ccsc2)csc1C
  Ecoli growth: 0.68; UCH37 DUB inh: 1.8
> Cn1c(=O)[nH]c(=O)c2c1nc(N1CCN(c3cccc(Cl)c3)CC1)n2CCCc1ccccc1
  Ecoli growth: 0.67; UCH37 DUB inh: 3.4
> COc1ccc2cc(C(=O)NN=Cc3cc(OC)c(OC)c(OC)c3)[nH]c2c1
  Ecoli growth: 0.67; UCH37 DUB inh: -35
> Cc1cccc(N=CC2=C(O)CC(C)(C)CC2=O)n1
  Ecoli growth: 0.65; UCH37 DUB inh: 11
> COc1cc(C=NNC(=O)Nc2ccccc2)ccc1OC(C)=O
  Ecoli growth: 0.71; UCH37 DUB inh: 2.9
> COc1cccc(C=NNC(=O)C(c2ccncc2)N2CCOCC2)c1 (stereo unspecified)
  Ecoli growth: 0.7; UCH37 DUB inh: 0.9
> COc1ccc(OC)c(C=Nn2c(COc3ccccc3)n[nH]c2=S)c1
  Ecoli growth: 0.69; UCH37 DUB inh: -25
> COc1ccc(C(=O)NN=c2oc3ccccc3cc2C(=O)NCc2ccccc2)cc1
  Ecoli growth: 0.7; UCH37 DUB inh: 0.9
> COCCNC(=S)NN=C(C)c1cccc(OC)c1
  Ecoli growth: 0.69; UCH37 DUB inh: 2.6
> Cn1c(SCC(=O)NN=C/C=C/c2ccccc2[N+](=O)[O-])nc2ccccc21
  Ecoli growth: 0.71; UCH37 DUB inh: 1.0
> CCNC(=O)ON=C(C)c1sc(-c2ccccc2)nc1C
  Ecoli growth: 0.74; UCH37 DUB inh: 6.3
> CC(=NNC(=O)CC1N=C(Cc2ccccc2)NNC1=O)c1cccnc1 (stereo unspecified)
  Ecoli growth: 0.69; UCH37 DUB inh: 3.8
> CC(=NNc1ccc([N+](=O)[O-])cc1)c1ccc(O)cc1
  Ecoli growth: 0.63; UCH37 DUB inh: 2.6
> CS(=O)(=O)N(CC(=O)NN=Cc1cc([N+](=O)[O-])ccc1Cl)c1ccccc1
  Ecoli growth: 0.72; UCH37 DUB inh: 3.6
> CCC(=NNC(=O)c1ccc(Br)o1)c1ccc(Cl)cc1
  Ecoli growth: 0.65; UCH37 DUB inh: -2.9

> CCC(C)=NNc1cccc([N+](=O)[O-])c1
  Ecoli growth: 0.62; UCH37 DUB inh: 0.6
> CC(C)C[C@H](NC(=O)OC(C)(C)C)C(=O)NN=Cc1ccc2nccnc2c1
  Ecoli growth: 0.67; UCH37 DUB inh: 3.3
> C/C(C=NNC(=O)CSc1ccccn1)=C\c1ccc(C(C)C)cc1
  Ecoli growth: 0.65; UCH37 DUB inh: 4.1
> CC(=NN(C)C)C1=C(O)c2ccccc2C1=O
  Ecoli growth: 0.66; UCH37 DUB inh: 8.1
> CCn1c(N=Cc2ccc(OC)cc2O)nc2ccccc21
  Ecoli growth: 0.64; UCH37 DUB inh: 0.4
> CCOc1ccc(C(C)=NNC(=O)Cn2nc([N+](=O)[O-])cc2C)cc1
  Ecoli growth: 0.66; UCH37 DUB inh: 1.1
> C(=NNc1nc(-c2ccccc2)cs1)c1ccco1
  Ecoli growth: 0.69; UCH37 DUB inh: -3.4
> COc1ccc(C=NN2CCOCC2)cc1COc1ccc(F)cc1
  Ecoli growth: 0.71; UCH37 DUB inh: 4.1
> Cc1cccc(C=NNC(=O)c2cccc(NC(=O)c3ccccc3)c2)n1
  Ecoli growth: 0.69; UCH37 DUB inh: 0.6
> COc1ccc(C=NNC(=O)Nc2cccc3nsnc23)c(OC)c1
  Ecoli growth: 0.78; UCH37 DUB inh: -15
> Cc1cccc(OCC(=O)NCC(=O)NN=Cc2cccnc2)c1
  Ecoli growth: 0.63; UCH37 DUB inh: 0.4
> COc1ccc(C(C)=NOCC(=O)Nc2nc3ccccc3s2)cc1OC
  Ecoli growth: 0.64; UCH37 DUB inh: 4.2
> N#CC(=NNc1ccc(Cl)cc1)C(=N)N1CCCCC1
  Ecoli growth: 0.7; UCH37 DUB inh: 10

Among those listed so far, these contain an aryl methoxy group.
> COc1cc(C=NNC2=NC(C)(C)Cc3ccccc32)cc(OC)c1OC
  Ecoli growth: 0.64; UCH37 DUB inh: 9.3
> COc1cc(C=NNC(=O)CC#N)ccc1Oc1nc(Cl)ncc1F
  Ecoli growth: 0.62; UCH37 DUB inh: 5.7
> COc1ccc(C=NN2CCOCC2)cc1Cn1cc([N+](=O)[O-])cn1
  Ecoli growth: 0.69; UCH37 DUB inh: 1.7
> COc1ccc(C=Nn2cc(-c3ccc(OC)cc3)nc2N)cc1
  Ecoli growth: 0.65; UCH37 DUB inh: 2.8
> COc1ccc(C=NNC(=O)CCn2cnc(-c3ccccc3)c2-c2ccccc2)cc1OC
  Ecoli growth: 0.7; UCH37 DUB inh: 3.5
> COc1ccc2cc(C(=O)NN=Cc3cc(OC)c(OC)c(OC)c3)[nH]c2c1
  Ecoli growth: 0.67; UCH37 DUB inh: -35
> COc1cc(C=NNC(=O)Nc2ccccc2)ccc1OC(C)=O
  Ecoli growth: 0.71; UCH37 DUB inh: 2.9
> COc1cccc(C=NNC(=O)C(c2ccncc2)N2CCOCC2)c1 (stereo unspecified)
  Ecoli growth: 0.7; UCH37 DUB inh: 0.9
> COc1ccc(OC)c(C=Nn2c(COc3ccccc3)n[nH]c2=S)c1
  Ecoli growth: 0.69; UCH37 DUB inh: -25
> COc1ccc(C(=O)NN=c2oc3ccccc3cc2C(=O)NCc2ccccc2)cc1
  Ecoli growth: 0.7; UCH37 DUB inh: 0.9
> COCCNC(=S)NN=C(C)c1cccc(OC)c1
  Ecoli growth: 0.69; UCH37 DUB inh: 2.6
> CCn1c(N=Cc2ccc(OC)cc2O)nc2ccccc21
  Ecoli growth: 0.64; UCH37 DUB inh: 0.4
> COc1ccc(C=NN2CCOCC2)cc1COc1ccc(F)cc1
  Ecoli growth: 0.71; UCH37 DUB inh: 4.1
> COc1ccc(C=NNC(=O)Nc2cccc3nsnc23)c(OC)c1
  Ecoli growth: 0.78; UCH37 DUB inh: -15
> COc1ccc(C(C)=NOCC(=O)Nc2nc3ccccc3s2)cc1OC
  Ecoli growth: 0.64; UCH37 DUB inh: 4.2

High-throughput results deposited in PubChem BioAssay by ICCB-Longwood Screening Facility, Harvard Medical School.
